Sa growth 42C = inhibitors of Staphylococcus aureus growth at 42 °C | AID 720641 | relative growth, % (concentration not given with the values) | 0.53% of 170,000 active | S. aureus RN4220 growth, OD600, 20 h; hits give low values;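 active = growth at 42 °C up to 50% and 20 or more points under that at 30 °C, or under 10% at both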;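 also: 300 nL library stock went into each well; scaled to the means of positive and negative controls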
HCMV UL50-53 inh = cytomegalovirus nuclear egress complex inhibition. HTRF UL50-UL53 interaction, normalized percent inhibition. inhibition, % (test concentration not listed). 0.15% of 190,000 active;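 active = both replicates at 50% or more, plus weaker picks with an unusually low signal ratio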;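 also: stock transfer was 100 nL into about 20 µL; 0% = negative control wells and 100% = wells with untagged competitor protein; inactives centre near -12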
GIV-Gai inh = inhibitors of GIV GBA-motif binding to rat Galpha-i3; percent of control (FP), % (no concentration beside the values); 0.42% of 210,000 active; Galpha-i3/FITC-GIV peptide fluorescence polarization, 90 min; hits give low values; scaled: aluminum fluoride 0%, vehicle 100%; P08753;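 active = replicate mean at 85% of control or lower, very high polarization wells dropped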;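 also: wells of about 15 µL received 100 nL stock; the first replicate is given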
Target sequence (P08753 whole entry, looked up): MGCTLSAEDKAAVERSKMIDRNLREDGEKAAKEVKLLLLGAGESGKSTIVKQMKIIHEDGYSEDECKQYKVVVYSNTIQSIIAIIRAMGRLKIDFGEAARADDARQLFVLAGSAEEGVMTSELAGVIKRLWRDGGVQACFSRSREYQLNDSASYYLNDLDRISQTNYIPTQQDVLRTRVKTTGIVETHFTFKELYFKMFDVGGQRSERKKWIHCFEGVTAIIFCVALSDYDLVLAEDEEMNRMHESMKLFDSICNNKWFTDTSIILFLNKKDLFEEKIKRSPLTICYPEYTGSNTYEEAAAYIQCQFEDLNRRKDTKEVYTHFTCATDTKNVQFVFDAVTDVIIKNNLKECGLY
Sa growth 42C second temp = also measured in Sa growth 42C; calls as there; relative growth, %; measured here: growth at 30 °C;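 optical density after 20 h as mean of two plates; 100% = untreated growth and lower means inhibition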
Starred values were filed as active, the others as inactive; · = not tested or not shown; & = joins results of further samples.

structure	Sa growth 42C	Sa growth 42C second temp	HCMV UL50-53 inh	GIV-Gai inh
CCNC(CC(=O)Nc1ccc(O)cc1)C(=O)O (stereo not given)	94	93	-19	104
O=C(OCCN1CCCCC1)c1ccc(F)cc1	97	95	-18	111
CNC(=O)n1cc(-c2ccccc2)c(C)n1	93	92	-15	105
Cc1cccc2nc(CSc3nnc4ccccn34)cn12	106	85	-24	·
Cc1ccc(S(=O)(=O)c2no[n+]([O-])c2S(=O)(=O)c2ccc(C)cc2)cc1	69	96	18	·
Cc1cc2c3c([nH]c2cc1S(=O)(=O)NC1CC1)CCCC3=O	90	82	-12	104
Cc1cc(C(=O)CSc2nnc(Cc3ccccc3)o2)c(C)n1CCc1ccccc1	99	98	-7	·
COc1ccc(CCNC(=O)c2ccc3c(=O)n(CCc4ccccc4)c(=O)[nH]c3c2)cc1OC	88	80	-8	101
COc1ccc(-n2c(O)c(/C=N/N(C)C)c3ccccc3c2=O)cc1	100	103	-58	109
Cc1ccc(O)c(NC(=O)C2=CC(c3cccs3)=NS(=O)(=O)N2C)c1	114	85	-46	106
O=C(C1CCC(Cn2c(=O)c3sccc3n(Cc3cccc(F)c3)c2=O)CC1)N1CCOCC1 (stereo not given)	75	88	·	97
Cc1ccc2sc(-c3ccc(N4C(=O)C5CC=CCC5C4=O)cc3)nc2c1 (stereo not given)	119	92	·	101
CC1=C(C(=O)OCCOc2ccccc2)C(c2ccc(Cl)c(Cl)c2)NC(=O)N1C (stereo not given)	·	·	-14	103
CCN(CC)CCNc1c2c(nc3cc(-c4ccc(OC)c(OC)c4)nn13)CCC2	100	92	-4	109
C=C(C)CN1N=C(C(C)(C)C)CC1=O	65	104	17	96
O=C(NCCc1nnc2ccc(SCC(=O)N3CCCC3)nn12)c1ccccc1	103	95	-20	104
Cc1ccc(C)c(CN2C(=O)C(O)(c3c[nH]c4ccccc34)c3ccccc32)c1 (stereo not given)	68	71	1	111
Cc1cc(C(=O)OCC(=O)c2cc(C)n(-c3ccc(Cl)cc3)c2C)no1	82	89	-17	·
COCCN1Cc2cccc(C(=O)Nc3ccc(C)cc3C)c2C1=O	97	81	-10	105
Cc1nn(Cc2ccccc2Cl)c2sc(C(=O)OCc3nc4ccccc4c(=O)n3CC#N)cc12	95	98	-25	·
CC1CCc2nc3ncn(Cc4ccc(Cl)cc4)c(=O)c3cc2C1 (stereo not given)	91	87	·	102
Clc1ccc(-c2noc(CSc3ccccc3)n2)cc1	114	102	-12	107
COc1ccc(N2CCN(C(=O)c3ccc(-c4nc(COc5ccccc5)c(C)o4)cc3)CC2)cc1	107	88	·	102
CCn1c(COc2cccc(C)c2)nnc1SCC(=O)N1C(C)CCCC1C (stereo not given)	100	97	-16	102
CCC(O)c1nc2ccccc2n1Cc1cc(C)ccc1C (stereo not given)	107	81	-12	102
Cn1nc(C(=O)N2CCC(c3ccccc3)C2)c2c1-c1ccsc1CC2 (stereo not given)	105	84	-33	106
COc1cccc(NC(=S)N(C)c2ccc(O)cc2)c1	88	90	-33	·
COc1ccc(C(=O)N2CCN(c3nc4c(C)c(Cl)ccc4s3)CC2)c(OC)c1	128	85	·	98
Cc1cc(C)nc(-n2cc3c(=O)[nH]c(=S)[nH]c3n2)n1	92	91	·	107
CCOC(=O)c1cnc(N2CCN(c3ccccc3)CC2)[nH]c1=O	94	93	-11	97
O=c1c(Cc2ccccc2)c(O)nc2ccccn12	107	104	14	103
O=S(=O)(Nc1cccc(-c2nnc3n2CCCCC3)c1)c1ccc2c(c1)OCCCO2	70	84	-25	·
O=C(Cn1nnc(-c2ccccc2)n1)OC1CCOC1=O (stereo not given)	99	90	-5	·
COC(=O)c1ccc(C(Nc2ccccn2)c2ccc3ccc(C)nc3c2O)cc1 (stereo not given)	103	91	-6	99
C/C(=N\NC(=O)CN1C(=O)COc2ccccc21)c1cc2cc(Cl)ccc2o1	103	86	-39	·
N#C/C(=C/c1ccc(Cl)cc1)c1nc(-c2ccc(Br)cc2)cs1	95	92	-5	110
COc1ccc(S(=O)(=O)N2CCc3cc4cccc(C)c4nc32)cc1Cl	·	·	-27	99
CC1CCC(NS(=O)(=O)c2ccc3c(c2)CCN3C(=O)NC2CCCCC2)CC1 (stereo not given)	·	·	3	102
CN(C)c1ccc(CNC(=O)CC2(CC3=NS(=O)(=O)c4ccccc4N3)CCCC2)cc1	114	105	-19	97
Cc1c(-c2nnc(C(=O)NC3CCCC3)o2)oc2c(C)cccc12	·	·	-19	102
COCCNC(=O)Cn1ccc2cc(S(=O)(=O)N3CCCCCC3)ccc21	105	95	·	105
COc1cc(OC)cc(OCC(O)Cn2c(Cc3ccccc3)nc3ccccc32)c1 (stereo not given)	·	·	-23	103
C=CCN1C(=O)/C(=C2/C(=O)N(CC=C)c3ccccc32)SC1=S	99	101	-6	108
CCCN(CCC)S(=O)(=O)c1ccc(OC)c2ncccc12	102	81	-19	·
Clc1ccc2c(c1)c(-c1ccccc1)nc1nncn12	96	88	·	99
COc1ccc2cc3n(c2c1)CC(C)(C(=O)NC1CCCCC1)N(CCN1CCCCC1C)C3=O (stereo not given)	·	·	-3	100
COc1ccc(Nc2cc(C)nc3c(C)c(C)ccc23)cc1	101	74	·	114
O=C(c1ccccc1)N1CCN(C(=O)C2CC3C=CC2C3)CC1 (stereo not given)	98	98	7	·
CCC(C)(CC(=O)O)CC(=O)Nc1cc(C(F)(F)F)cc(C(F)(F)F)c1 (stereo not given)	68	37	-11	105
Cc1ccc(NC(=O)c2nn(C)c3c2CS(=O)(=O)c2ccccc2-3)c(Cl)c1	106	89	-8	104

Other entries:
structure	Sa growth 42C	Sa growth 42C second temp	HCMV UL50-53 inh	GIV-Gai inh
O=C(COC(=O)CSc1nnc(-c2ccccc2F)n1-c1ccccc1)Nc1nnc(-c2ccccc2)o1	63	45	2	·
CC1=C(C(=O)Nc2ccc(F)cc2F)C2(CCCCCC2)OC1=O	64	96	·	98
O=C(COc1ccc(Cl)cc1)N1CCCCC1	103	81	-3	97
CCN(C(=O)CSC1=NCCS1)C1CCCCC1	105	87	-18	·
Cc1cc(C)c(-c2n[nH]c3c2C(c2ccc(F)cc2)N(CC2CCCO2)C3=O)c(O)c1 (stereo not given)	·	·	-9	103
CC(C)(C)C(=O)Nc1cccc(-c2nc3ccccc3[nH]2)c1	83	80	3	·
Cc1ccccc1NC(=O)CCC1COc2ccccc2O1 (stereo not given)	101	97	-3	103
Cn1cnc(S(=O)(=O)N(Cc2ccccc2)Cc2ccccc2N2CCC(C(=O)O)CC2)c1	112	79	-26	102
COc1ccc(OC)c(CCNC(=O)c2nn(C)c3c2CSc2ccccc2-3)c1	120	93	-19	98
NC(=O)C1CCN(C(=O)c2ccc(/C=C3/Oc4ccccc4N(Cc4ccccc4F)C3=O)cc2)CC1	108	80	·	102

Copied from the entries so far, four compounds:
structure	Sa growth 42C	Sa growth 42C second temp	HCMV UL50-53 inh	GIV-Gai inh
O=C(COC(=O)CSc1nnc(-c2ccccc2F)n1-c1ccccc1)Nc1nnc(-c2ccccc2)o1	63	45	2	·
CC1=C(C(=O)Nc2ccc(F)cc2F)C2(CCCCCC2)OC1=O	64	96	·	98
O=C(COc1ccc(Cl)cc1)N1CCCCC1	103	81	-3	97
CCN(C(=O)CSC1=NCCS1)C1CCCCC1	105	87	-18	·

Full records as entered above. Screens in order: Sa growth 42C	Sa growth 42C second temp	HCMV UL50-53 inh	GIV-Gai inh
Record of COc1ccc(-n2c(O)c(/C=N/N(C)C)c3ccccc3c2=O)cc1 → 100	103	-58	109
Record of CCOC(=O)c1cnc(N2CCN(c3ccccc3)CC2)[nH]c1=O → 94	93	-11	97
Record of CCn1c(COc2cccc(C)c2)nnc1SCC(=O)N1C(C)CCCC1C (stereo not given) → 100	97	-16	102
Record of COc1cc(OC)cc(OCC(O)Cn2c(Cc3ccccc3)nc3ccccc32)c1 (stereo not given) → ·	·	-23	103
Record of O=C(OCCN1CCCCC1)c1ccc(F)cc1 → 97	95	-18	111

The results go on.
structure	Sa growth 42C	Sa growth 42C second temp	HCMV UL50-53 inh	GIV-Gai inh
O=C(c1cccc(Cl)c1)N1CCc2nc(-c3ccccc3)sc2C1	·	·	16	104
C(=N\N1CCN(c2ccccn2)CC1)/c1ccco1	65	70	-23	104
CCC(C)NC(=O)c1cccc(NC(=O)c2nsc3ccccc23)c1 (stereo not given)	115	91	·	107
Cn1cc(S(=O)(=O)c2ccccc2)c(=O)c2cc(F)ccc21	95	95	-4	104
COc1ccc(OC)c(NC(=O)c2ccc(-c3nc(COc4ccccc4)c(C)o3)cc2)c1	78	86	·	99
CCOC(=O)C1CCN(C(=O)[C@H](Cc2ccccc2)N2Cc3ccccc3C2=O)CC1	83	84	-5	100
COc1ccc2c(C)[nH]c(=O)cc2c1	100	88	·	104
O=C(NCCc1ccncc1)C(F)(F)F	90	84	·	98
O=C(Cc1ccccc1)c1ccc(Br)cc1	84	84	-18	97
CC1=C(C#N)C(c2cc(Br)ccc2O)C(C#N)=C(C)N1	85	64	-3	107
Cc1cccc(N2CCN(C(=O)/C=C3\Sc4ccccc4NC3=O)CC2)c1C	104	93	-21	97
COc1ccc(C(=O)Nc2cc3c(cc2SC(C)C)n(C)c(=O)n3C)cc1	·	·	-30	105
C=CCn1c(=O)c(C(=O)Nc2cccc(Cl)c2C)c(O)c2ccccc21	·	·	-17	106
COc1ccc(-c2nn(-c3ccccc3)cc2CCC(=O)O)cc1	93	87	3	·
COc1cccc(C2Nc3ccccc3-n3cc4c(=O)n(C)c(=O)n(C)c4c32)c1OC (stereo not given)	·	·	-14	104
Cc1cccc(NC(=O)C2CCCN(S(=O)(=O)c3cn(C(C)C)cn3)C2)n1 (stereo not given)	·	·	-10	102
O=C(OCc1c(F)cccc1Cl)c1ccc(Cl)cc1	111	100	2	108
Cc1noc2c1C(c1ccc(C(C)C)cc1)C1=C(CC(c3ccc(O)cc3)CC1=O)N2 (stereo not given)	·	·	-28	107
CCN(CC)CCn1nc(C)nc1-c1ccccc1O	99	84	·	99
CCc1ccc(Nc2nn3c(=O)c4cc5c(cc4nc3s2)OCO5)cc1	98	95	10	95
COc1cc(NC(=O)CC(c2cccs2)N2Cc3ccccc3C2=O)cc(OC)c1OC (stereo not given)	90	90	·	102
CCOc1ccc(N2CC(C(=O)Oc3ccc4c(C)cc(=O)oc4c3)CC2=O)cc1 (stereo not given)	97	90	-26	·
O=[N+]([O-])c1ccc(-c2nc3ccccc3c3nc4ccccc4n23)cc1	·	·	-10	103
O=C(NCc1cccc(Br)c1)c1cccn1-c1nnc(N2CCCCC2)s1	97	81	·	93
Cc1ccc(C(=O)CC2(O)C(=O)Nc3ccccc32)o1 (stereo not given)	102	93	·	96
CCc1ccc(N2C=C(C(=O)OC)S(=O)(=O)c3cc(F)c(F)cc32)cc1	·	·	34	103
COc1ccc(NC(=O)CCCN2C(=O)COc3ccc(C)cc32)cc1OC	106	87	2	104
COc1ccc(Nc2oc(/C=C/c3cccc(OC)c3)nc2C#N)cc1	87	105	15	109
CCOc1cc(-c2cccc(Cl)c2)nc2ccc(C(=O)NCc3cccc(OC)c3)cc12	·	·	-12	107
Cc1cccc(OCc2nc(C)c(C(=O)Nc3nccs3)s2)c1	·	·	-5	113
O=C1NC(=Nc2ccccc2)SC1Cc1cccc2ccccc12 (stereo not given)	·	·	1	101
CC(=O)c1ccc(NC(=O)c2nn(C)c3c2CS(=O)(=O)c2ccccc2-3)cc1	115	96	-6	103
Cc1ccccc1C(=O)Nc1n[nH]c(C(F)(F)F)n1	78	93	-10	·
O=C(Cn1nnc(-c2cccnc2)n1)NCC1CCCO1 (stereo not given)	106	94	-22	99
CC(C)(C)N=C1OC(c2ccccc2)(C(F)(F)F)NC(=S)N1c1ccccc1 (stereo not given)	75	101	3	·
Cc1ccccc1-c1noc(-c2cc(-c3ccccc3)n[nH]2)n1	·	·	-20	105
CC(C)(C)c1cc(-c2ccc(Cl)cc2)c(C#N)c(N)n1	·	·	-10	99
C=CS(=O)(=O)c1ccc(Oc2ccc(S(=O)(=O)C=C)cc2)cc1	88	105	-11	93
CCOc1cc(/C=C2/SC(=O)N(c3ccc(Cl)cc3)C2=O)ccc1OCC(=O)O	·	·	-37	108
CNC(=O)CN1C(=O)C2CCCCN2c2ccc(S(=O)(=O)N(C)C)cc21 (stereo not given)	·	·	10	99
Cn1cccc1CNCC(O)c1ccccc1 (stereo not given)	113	91	6	103
CC(C)c1ccc(OCC(=O)Nc2ccccc2C(F)(F)F)cc1	85	93	-9	·
Cc1ccc(NC(=O)Cn2c(=O)n(Cc3nc(C)no3)c(=O)c3cc4c(cc32)OCO4)cc1	105	92	-9	110&109
CC(=O)N1CCc2c(sc3c2c(=O)n(-c2cccc(Cl)c2)c(=O)n3Cc2ccc(F)cc2Cl)C1	104	84	·	102
COc1cn(-c2ccccc2)nc1C(=O)Nc1ccc2nc(C)sc2c1	87	67	-24	·
